# GIV-Gai inh – inhibitors of GIV peptide binding to Galpha-i3, primary screen, biochemical, fluorescence polarization, FITC-GIV GBA peptide, rat Galphai3; hit rate 0.42% among 210,000; percent of control (FP), % (test concentration not listed); Guanine nucleotide-binding protein G(i) subunit alpha-3 (Rattus norvegicus), P08753; 90 min; stronger effect = lower value; scaled: aluminum fluoride 0%, vehicle 100%;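 active = replicate mean at 85% of control or lower, very high polarization wells dropped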;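 note: wells of about 15 µL received 100 nL stock; the first replicate is given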
# Target sequence (P08753 whole entry, looked up): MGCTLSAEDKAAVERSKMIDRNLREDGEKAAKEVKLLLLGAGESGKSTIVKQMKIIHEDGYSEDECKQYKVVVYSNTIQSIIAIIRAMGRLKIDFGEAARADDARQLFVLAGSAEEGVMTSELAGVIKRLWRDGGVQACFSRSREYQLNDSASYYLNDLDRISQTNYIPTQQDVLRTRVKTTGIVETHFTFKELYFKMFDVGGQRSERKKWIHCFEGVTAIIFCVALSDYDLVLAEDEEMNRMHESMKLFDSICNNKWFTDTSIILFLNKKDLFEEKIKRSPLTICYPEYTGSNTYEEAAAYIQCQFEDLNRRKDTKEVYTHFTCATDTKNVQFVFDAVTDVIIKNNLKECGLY
# HCMV UL50-53 inh – inhibitors of HCMV UL50-UL53 interaction, biochemical, HTRF; HCMV UL50-UL53 nuclear egress complex (human cytomegalovirus); normalized percent inhibition; inhibition, % (test concentration not listed); hit rate 0.15% among 190,000;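 active = both replicates at 50% or more, plus weaker picks with an unusually low signal ratio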;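 note: stock transfer was 100 nL into about 20 µL; 0% = negative control wells and 100% = wells with untagged competitor protein; inactives centre near -12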
# Sa growth 42C – S. aureus growth inhibition at 42 and 30 °C, primary screen, LtaS inhibitor project, RN4220, two temperatures; relative growth, % (test concentration not listed); OD600, 20 h, 42 °C; stronger effect = lower value; hit rate 0.53% among 170,000;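 active = growth at 42 °C up to 50% and 20 or more points under that at 30 °C, or under 10% at both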;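 note: 300 nL library stock went into each well; scaled to the means of positive and negative controls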
# Sa growth 42C second temp – also measured in Sa growth 42C; calls as there; relative growth, %; measured here: growth at 30 °C;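 optical density after 20 h as mean of two plates; 100% = untreated growth and lower means inhibition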
# * hit, by the source's call; / = no result given.
# Short forms: A = GIV-Gai inh; B = HCMV UL50-53 inh; C = Sa growth 42C; D = Sa growth 42C second temp
> CC1=Nc2ccccc2N=C(NC(=O)CSc2nnnn2-c2ccccc2)C1c1ccccc1 (configuration not stated)
  A = 107	B = -4	C = 90	D = 100

> O=c1[nH]c2ccccc2n1C1CCCCC1
  A = 105	B = -6	C = 95	D = 82

> CC(C)C(=O)NCCc1nc2ccccc2[nH]1
  A = /	B = -12	C = 95	D = 83

> C=CCc1c(C)nc(-c2ccccc2)nc1NN
  A = 96	B = 0	C = 74	D = 81

> CC(=O)Nc1nnc(C(C)C)s1
  A = 103	B = -37	C = 90	D = 71

> COc1cc(OC)cc(-n2nnc(-c3nc(-c4ccccc4Cl)no3)c2N)c1
  A = 96	B = /	C = 118	D = 86

> Cc1ccc(C(=O)N2CCN(c3ccc(F)cc3)CC2)cc1NC(=O)c1nsc2ccccc12
  A = 106	B = /	C = 111	D = 94

> OC(COc1ccc(Cl)cc1)(c1nnc(-c2ccccc2)o1)c1nnc(-c2ccccc2)o1
  A = /	B = -25	C = 96	D = 73

> COc1cc2c(cc1OC)C(C)N(S(=O)(=O)c1ccc(C)cc1)CC2 (configuration not stated)
  A = 97	B = /	C = 91	D = 93

> O=C(Nc1ccc(-c2nnn(CC(=O)N3CCN(C(=O)c4ccco4)CC3)n2)cc1)c1ccccc1F
  A = 100	B = 1	C = 113	D = 96

> CC1CCC/C(=C\c2ccc3c(c2)OCO3)C1=O (configuration not stated)
  A = /	B = -4	C = 80	D = 69

> Cc1nn(-c2ccccc2)c(C)c1CS(=O)(=O)c1ccccc1
  A = 102	B = -24	C = /	D = /

> Cn1c(=O)c2c(ncn2CC(=O)NCc2ccccc2)n(C)c1=O
  A = 98	B = -30	C = /	D = /

> O=C(NCC(=O)N1CCN(C2CCS(=O)(=O)C2)CC1)c1sc2ccccc2c1Cl (configuration not stated)
  A = /	B = -23	C = 117	D = 92

> CCN(CC)CCn1c2ccccc2n2cc(-c3ccc(F)cc3)nc12
  A = 97	B = -15	C = /	D = /

# Next records follow.
# Short forms: A = GIV-Gai inh; B = HCMV UL50-53 inh; C = Sa growth 42C; D = Sa growth 42C second temp
> O=S(=O)(c1ccccc1)N1N=C(c2ccccc2)CC1c1ccco1 (configuration not stated)
  A = 121	B = 1	C = 110	D = 101

> Cc1ccc(N2C(=O)CC(N3CC4(C)CC3CC(C)(C)C4)C2=O)cc1 (configuration not stated)
  A = 106	B = -8	C = 92	D = 87

> COc1ccc(C2C=C(c3ccc(F)cc3)NC(=S)N2)cc1OC (configuration not stated)
  A = 100	B = /	C = 104	D = 85

> COc1ccc2sc(N(Cc3cccnc3)C(=O)CCc3ccccc3)nc2c1
  A = 105	B = /	C = 69	D = 62

> COC(=O)c1ccc(CSc2nc3c(cnn3-c3ccc(Cl)cc3)c(=O)[nH]2)o1
  A = 97	B = -24	C = 99	D = 81

> CCOC(=O)c1ccc(NC(=O)c2c(NCc3ccc(C)o3)sc3c2CCCC3)cc1
  A = 104	B = /	C = 85	D = 64

> N/C(CSCc1ccco1)=N\O
  A = 106	B = 0	C = 110	D = 93

> CC(C)(C)c1ccc(-c2nnc3sc(-c4ccccn4)nn23)cc1
  A = 107	B = 5	C = 95	D = 86

> Brc1cc2c(cc1/C=N/c1c(-c3ccco3)nc3ccccn13)OCO2
  A = /	B = -9	C = 91	D = 78

> O=C(COc1ccc(Br)cc1)N(CCO)CCO
  A = /	B = -2	C = 111	D = 85

> OCc1c(Cl)nc2sccn12
  A = /	B = -22	C = 106	D = 92

> COc1cc2c(C(=O)O)c(C)oc2cc1Br
  A = /	B = -3	C = 89	D = 90

> Cc1ccc(CNC(=O)c2cc3c(s2)-c2ccccc2OC3)cc1
  A = 106	B = 0	C = 87	D = 87

> CC(C(=O)Nc1ccc(OC(F)(F)F)cc1)N1Cc2ccccc2C1=O (configuration not stated)
  A = 102	B = /	C = 81	D = 90

> Cc1nc2ccc(S(=O)(=O)NC(C(=O)NCc3ccc(Cl)cc3)C(C)C)cc2s1 (configuration not stated)
  A = 108	B = 2	C = 98	D = 87

# (further entries)
# Short forms: A = GIV-Gai inh; B = HCMV UL50-53 inh; C = Sa growth 42C; D = Sa growth 42C second temp
> CCCS(=O)(=O)c1c(S(=O)(=O)CCC)c2cc(C(C)(C)C)ccn2c1C(=O)c1ccccc1
  A = 99	B = 20	C = 86	D = 98

> C1CCN(c2nc(N3CCCCC3)nc(N3CCCCC3)n2)CC1
  A = 99	B = -5	C = /	D = /

> O=C(Cn1c(=O)nc(-c2ccccc2)c2ccccc21)N1CCN(c2ccc(F)cc2)CC1
  A = 105	B = /	C = 96	D = 91

> CCOC(=O)c1c(C)n(-c2ccccc2)c2c1cc(OC(=O)COc1ccccc1)c1ccccc12
  A = 102	B = -1	C = /	D = /

> NNC(=O)c1cccc(C(=O)NN)n1
  A = 106	B = -16	C = 87	D = 82

> C=Cc1ccc(Cn2nc3n(CCc4ccccc4)c(=O)c4ccccc4n3c2=O)cc1
  A = 101	B = -24	C = /	D = /

> CC(=O)Nc1ccccc1-c1nc2ccc(C(=O)N3CCC(Cc4ccccc4)CC3)cc2[nH]c1=O
  A = 105	B = /	C = 100	D = 76

> Cn1c(=O)c2c(nc(N3CCN(Cc4ccccc4)CC3)n2Cc2cccc(Cl)c2)n(C)c1=O
  A = 110	B = 19	C = /	D = /

> CCN(CC)S(=O)(=O)c1cccc(-c2nnc(SCC(=O)Nc3cc(C)on3)o2)c1
  A = /	B = -18	C = 96	D = 85

> COc1ccc2nc(SCC(=O)Nc3cc(F)ccc3F)[nH]c2c1
  A = /	B = -8	C = 91	D = 84

> CCN1C(=O)c2ccccc2S(=O)(=O)c2ccc(C(=O)NCc3ccccc3OC)cc21
  A = 103	B = -32	C = 104	D = 87

> CN(C)c1ccc(C2OC(COc3ccccc3)CN(C(=O)c3ccccc3)O2)cc1 (configuration not stated)
  A = /	B = -5	C = 91	D = 82

> CCOC(=O)c1ccc(N2N=C(C(F)(F)F)/C(=C/c3ccc(OCC)c(OCC)c3)C2=O)cc1
  A = /	B = -10	C = 81	D = 77

> CCSc1nc(O)cc(=O)n1CC
  A = 102	B = -7	C = 116	D = 99

> CCN1C(=O)c2c(C(=O)NCCN3CCOCC3)ncn2CC1(C)C(=O)NC1CCCC1 (configuration not stated)
  A = 100	B = -18	C = /	D = /

# The list goes on:
# Short forms: A = GIV-Gai inh; B = HCMV UL50-53 inh; C = Sa growth 42C; D = Sa growth 42C second temp
> COc1ccc(N2CCN(c3nn(C)c(=O)n(C)c3=O)CC2)cc1
  A = /	B = -54	C = 92	D = 94

> NC(=O)C1CCN(S(=O)(=O)c2ccccc2)CC1
  A = 100	B = /	C = 125	D = 79

> COc1ccc(Cn2c(=O)n(-c3ccc(OC)cc3)c(=O)c3c2c2cc(OC)ccc2n3C)cc1
  A = 109	B = /	C = 110	D = 88

> O=C(Cn1c(-c2cccs2)cc2ccccc21)N1CCN(c2ccccc2F)CC1
  A = 107	B = /	C = 84	D = 103

> Cc1ccc(CSc2nnc3[nH]c(=O)cc(-c4ccccc4)n23)cc1
  A = 105	B = /	C = 92	D = 91

> Cc1ccc(S(=O)(=O)Nc2ccc(N3CCCS3(=O)=O)cc2)cc1C
  A = 94	B = -20	C = /	D = /

> O=C(NCC1CCCO1)c1cccn1-c1cccnc1 (configuration not stated)
  A = 102	B = -31	C = /	D = /

> CCOC(=O)c1c(NC(=O)/C=C/c2ccc(OCC)cc2)sc2c1CCC2
  A = 104	B = 14	C = 97	D = 103

> CN1C(=O)c2ccccc2N(C)C1c1cccs1 (configuration not stated)
  A = 101	B = -2	C = 123	D = 79

> CC(C)NC(=O)c1ccc(-c2ccccc2)cc1
  A = /	B = -4	C = 93	D = 80

> CC(=O)Nc1ccc2c(Cn3ncc(Cl)c(Cl)c3=O)cc(=O)oc2c1
  A = /	B = -74	C = 56	D = 83

> CCn1nc(C)c(CCN(C)C(=O)Nc2ccc3c(c2)OCO3)c1C
  A = 103	B = -4	C = /	D = /

> Cc1ccc2ccc(S(=O)(=O)N3CCCCC3)cc2c1
  A = 96	B = 4	C = 111	D = 113

> O=C(NCC(c1ccc2c(c1)OCO2)N1CCN(c2ccc(F)cc2)CC1)c1cccc([N+](=O)[O-])c1 (configuration not stated)
  A = 102	B = /	C = 105	D = 98

> O=C(Cn1c(SCc2ccc(F)cc2)nc2cccnc21)N1CCCC1
  A = 107	B = -18	C = 98	D = 110

# Later entries
# Short forms: A = GIV-Gai inh; B = HCMV UL50-53 inh; C = Sa growth 42C; D = Sa growth 42C second temp
> Cc1cccc(C(CC(=O)N2CCN(c3ccccc3F)CC2)n2cccc2)c1 (configuration not stated)
  A = 100	B = -8	C = 88	D = 55

> Cc1cccc(NC(=O)CSC2=NS(=O)(=O)c3ccccc32)c1C
  A = 100	B = /	C = 96	D = 96

> O=C(Nc1ccccc1)Sc1ccc(F)cc1F
  A = 106	B = -1	C = 51	D = 1

> Oc1ccc2oc3c(c2c1/C=N/N1CCCCC1)CCCC3
  A = 102	B = /	C = 106	D = 83

> CCN(CC)CC(O)CN1c2ccccc2Sc2ccccc21 (configuration not stated)
  A = 98	B = -17	C = 94	D = 81

> O=C(O)c1cccc(-c2ccc(/C=N\n3cnnc3)o2)c1
  A = /	B = -90	C = 91	D = 83

> COc1ccc(-n2c(/C=C/c3cccc4ccccc34)nc3ccccc3c2=O)cc1OC
  A = 101	B = /	C = 125	D = 92

> CCOC(=O)N1CCc2c(sc(NCc3cccc(F)c3)c2C(=O)Nc2ccccc2OCC)C1
  A = 104	B = /	C = 103	D = 80

> CCN(CC)CCn1c(=N)n(CC(O)c2ccc(Cl)c(Cl)c2)c2ccccc21 (configuration not stated)
  A = 102	B = -26	C = 76	D = 54

> CC(=O)c1cc(-c2ccccc2)n(CC(=O)NC2CCCCCC2)c1C
  A = 110	B = /	C = 117	D = 99

> CCOc1cc(C2Nc3ccccc3NC3=C2C(=O)CC(c2ccc(OC)cc2)C3)cc(Br)c1O (configuration not stated)
  A = 104	B = -11	C = /	D = /

> Cc1cc(=O)oc2cc(NC(=S)NCc3cc(C)n(C)n3)ccc12
  A = 112	B = -4	C = 105	D = 99

> Cn1nnnc1Sc1nc(-c2ccccc2)nc2ccccc12
  A = /	B = -22	C = 79	D = 90

> O=C(Oc1ccccc1Cl)C1COc2ccccc2O1 (configuration not stated)
  A = 110	B = -16	C = 101	D = 96

> COc1ccc(OC)c2sc(N3CCN(C(=O)C(C)C)CC3)nc12
  A = 101	B = -22	C = 88	D = 81

# Following part
# Short forms: A = GIV-Gai inh; B = HCMV UL50-53 inh; C = Sa growth 42C; D = Sa growth 42C second temp
> C=CCn1c(=O)sc2cc(Br)ccc21
  A = 108	B = 0	C = 89	D = 120

> O=C(Nc1ccccc1C(F)(F)F)c1noc2c1CCCC2
  A = 100	B = -8	C = 109	D = 86

> Cc1cc(NC(=O)CSc2ncc(C(=O)Nc3ccccc3)c(=O)n2C)no1
  A = 96	B = /	C = 98	D = 92

> Cn1c(=O)c(-c2noc(C(=O)NC3CCCC3)n2)nn(-c2ccc(F)cc2)c1=O
  A = 99	B = -75	C = /	D = /

> COC(=O)c1sccc1-c1ccc(C2C3=C(CCCC3=O)NC3=C2C(=O)CCC3)o1
  A = 106	B = -56	C = 99	D = 77

> CCOC(=O)CSc1nc2sc(C(=O)N3CCCC3)c(C)c2c(=O)n1CCc1ccccc1
  A = 102	B = -3	C = /	D = /

> CN(Cc1c(F)cccc1Cl)C(=O)C1CC(=O)N(CCc2ccccc2)C1 (configuration not stated)
  A = /	B = -13	C = 98	D = 88

> CCCCOC(=O)c1ccc(NC(=O)c2cc(-c3ccccc3)on2)cc1
  A = 100	B = -4	C = 103	D = 87

> Cc1ccc(S(=O)(=O)N(CCC#N)C2CCCCC2)cc1
  A = 103	B = 6	C = 100	D = 90

> Cc1cccc2c1cnn2C(=O)CCC(=O)NC1CCCc2ccccc21 (configuration not stated)
  A = 115	B = -5	C = /	D = /

> O=C(NCc1noc2ccccc12)Nc1ccc(F)cc1
  A = 110	B = -5	C = /	D = /

# By substructure: those above containing a thiophene ring, fused or not (9)
# Short forms: A = GIV-Gai inh; B = HCMV UL50-53 inh; C = Sa growth 42C; D = Sa growth 42C second temp
> O=C(NCC(=O)N1CCN(C2CCS(=O)(=O)C2)CC1)c1sc2ccccc2c1Cl (configuration not stated)
  A = /	B = -23	C = 117	D = 92

> CCOC(=O)c1ccc(NC(=O)c2c(NCc3ccc(C)o3)sc3c2CCCC3)cc1
  A = 104	B = /	C = 85	D = 64

> Cc1ccc(CNC(=O)c2cc3c(s2)-c2ccccc2OC3)cc1
  A = 106	B = 0	C = 87	D = 87

> O=C(Cn1c(-c2cccs2)cc2ccccc21)N1CCN(c2ccccc2F)CC1
  A = 107	B = /	C = 84	D = 103

> CCOC(=O)c1c(NC(=O)/C=C/c2ccc(OCC)cc2)sc2c1CCC2
  A = 104	B = 14	C = 97	D = 103

> CN1C(=O)c2ccccc2N(C)C1c1cccs1 (configuration not stated)
  A = 101	B = -2	C = 123	D = 79

> CCOC(=O)N1CCc2c(sc(NCc3cccc(F)c3)c2C(=O)Nc2ccccc2OCC)C1
  A = 104	B = /	C = 103	D = 80

> COC(=O)c1sccc1-c1ccc(C2C3=C(CCCC3=O)NC3=C2C(=O)CCC3)o1
  A = 106	B = -56	C = 99	D = 77

> CCOC(=O)CSc1nc2sc(C(=O)N3CCCC3)c(C)c2c(=O)n1CCc1ccccc1
  A = 102	B = -3	C = /	D = /
